# RGS16-Gao HTS: modulators of RGS16 binding to Galphao, primary screen, biochemical, human proteins, multiplexed bead flow cytometry; binding response (% of control), % at 10 µM; Regulator of G-protein signaling 16 (Homo sapiens) + Guanine nucleotide-binding protein …; AID 1441, 2008; hit rate 0.38% among 220,000; bead-based flow cytometry RGS16-Galphao binding, fluorescence; actives lie on both sides;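 active = below 25% or above 175%, edge rows of some plates excepted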;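 note: Galphao activated by GDP with aluminum fluoride before binding; 100% = wells without compound and 0% = beads without RGS; some results beyond the cut were filed as inactive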
# Target sequence (O15492 whole entry, looked up): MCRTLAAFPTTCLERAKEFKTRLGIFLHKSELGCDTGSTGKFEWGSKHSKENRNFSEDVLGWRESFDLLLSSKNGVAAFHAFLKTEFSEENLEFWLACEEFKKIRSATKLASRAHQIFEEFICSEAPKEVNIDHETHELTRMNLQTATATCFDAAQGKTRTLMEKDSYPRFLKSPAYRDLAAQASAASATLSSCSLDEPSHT
# Target sequence (P09471 whole entry, looked up): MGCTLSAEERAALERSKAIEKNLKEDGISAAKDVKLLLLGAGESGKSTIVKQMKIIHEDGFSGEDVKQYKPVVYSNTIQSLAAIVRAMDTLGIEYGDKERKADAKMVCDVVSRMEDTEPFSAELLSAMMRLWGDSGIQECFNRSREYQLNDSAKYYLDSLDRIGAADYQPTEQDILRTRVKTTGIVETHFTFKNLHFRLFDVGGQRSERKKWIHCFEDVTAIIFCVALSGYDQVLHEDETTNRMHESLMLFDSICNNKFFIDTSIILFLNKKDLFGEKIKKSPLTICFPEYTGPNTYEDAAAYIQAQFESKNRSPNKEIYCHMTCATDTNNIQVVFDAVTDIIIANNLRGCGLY
# PKD1 kinase inh: inhibitors of human PKD1 kinase, biochemical, fluorescence polarization; Serine/threonine-protein kinase D1 (Homo sapiens), Q15139; PKD1 kinase fluorescence polarization assay; inhibition, %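 (about 10 µM by stock and volumes)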; hit rate 0.056% among 200,000; AID 797, 2007;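 active = inhibition of 50% or more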;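 note: controls were vehicle for no effect and a reference inhibitor for full effect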
# INS promoter inh: inhibitors of insulin promoter-driven GFP, primary screen, imaging, TRM-6 cells (human fetal islet line), eGFP reporter, cell count. inhibition, % at 2 µM. hit rate 0.9% among 130,000. reporter expression induced with tamoxifen;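 active = inhibition above the mean plus 3 SD, with well images judged a real hit on visual review, cut at about 60% in these data, passing the limit was not always enough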
# HSV augment: enhancers of HSV replication in host cells, fold increase, host cell viability; hit rate 0.005% among 220,000; HSV replication augmentation in cells; maximum fold increase;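 active = peak rise of 1.5-fold or more in the series; tested in PC3 cells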;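 note: first round at 10 µM; read as green reporter fluorescence; hits show the peak of a series up to 25 µM; 1 = signal of infected wells without compound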
# GALR2 ag: GALR2 receptor agonists, primary screen, cell-based; GALR2-expressing cells, agonist activation read-out; activation, %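 (tested at 5 µM)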; hit rate 0.48% among 140,000; AID 803, 2007;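 active = above mean plus 3 SD of all compounds, about 5% in these data, not always enough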;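 note: 0% = vehicle buffer wells and 100% = reference agonist at full effect; tested in CHO reporter cells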
# Target sequence (O43603 whole entry, looked up): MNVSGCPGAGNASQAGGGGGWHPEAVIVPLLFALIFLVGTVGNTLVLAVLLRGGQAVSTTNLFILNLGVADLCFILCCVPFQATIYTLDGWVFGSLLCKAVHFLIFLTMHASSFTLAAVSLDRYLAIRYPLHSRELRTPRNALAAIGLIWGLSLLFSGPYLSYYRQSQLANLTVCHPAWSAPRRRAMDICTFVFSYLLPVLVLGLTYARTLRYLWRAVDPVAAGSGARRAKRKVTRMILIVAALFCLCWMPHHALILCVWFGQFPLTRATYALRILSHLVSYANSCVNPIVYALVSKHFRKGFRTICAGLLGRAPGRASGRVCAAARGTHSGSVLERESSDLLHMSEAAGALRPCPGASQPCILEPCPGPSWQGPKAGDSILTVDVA
# INS promoter inh cell count: recorded beside INS promoter inh, whose call it bears; normalized cell count, %; measured here: cell count, toxicity; reference of the scale not given here;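 cells exposed to compound for 48 h; stained nuclei by imaging scaled within each plate; lower means fewer cells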
# HSV augment primary fold: recorded beside HSV augment, whose call it bears; fold increase; compound at 10 µM; measured here: primary screen fold increase 10 uM; tested in PC3 cells;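 GFP signal in the first replicate; 1 = infected wells without compound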
# * marks the source's active call; other numbers are inactive results; i = inactive; x = no result given.
SMILES,RGS16-Gao HTS,PKD1 kinase inh,INS promoter inh,INS promoter inh cell count,HSV augment,HSV augment primary fold,GALR2 ag
CN(C)S(=O)(=O)c1cccc2c1C(=O)c1ccccc1C2=O,102.0,-1.0,-17.2,188.9,i,0.96,-1.2
CCCC(=O)N1c2ccc(-c3csc(N)n3)cc2CC1C (configuration not stated),99.2,-6.2,50.0,114.7,i,0.94,0.4
CCOC(=O)Cn1nc(C)c(NC(=O)COc2ccccc2[N+](=O)[O-])c1C,108.3,-9.4,25.0,133.9,i,0.94,x
Cc1ccc(N2CC(C(=O)Nc3ccc(C)c(S(=O)(=O)N(C)C)c3)CC2=O)cc1 (configuration not stated),100.4,-1.6,11.8,156.7,i,0.93,x
c1ccc(Cn2nnnc2C(c2ccccn2)N2CCOCC2)cc1 (configuration not stated),107.6,-10.2,-14.3,128.0,i,0.87,-1.9
CC1CC(C)CN(C(=O)COC(=O)CNS(=O)(=O)/C=C/c2ccccc2)C1 (configuration not stated),95.0,-0.1,x,x,i,0.9,-1.2
N#Cc1ccc(/C=N/NC(=O)CCc2ccc(S(=O)(=O)N3CCOCC3)cc2)cc1,97.6,0.6,x,x,i,1.12,0.1
CCCc1cc2c(=O)c(-c3ccc4c(c3)OCCO4)c(C)oc2cc1OS(C)(=O)=O,97.4,2.1,-19.2,100.0,i,0.98,-1.9
ClCc1csc(-c2ccc(Cl)cc2)n1,98.8,3.6,x,x,i,0.93,-1.4
CSc1ccccc1NC(=O)C1C2CCC(C2)C1C(=O)O (configuration not stated),21.0*,6.5,x,x,i,1.08,x
CC(=O)N/N=C(\C)C1COc2ccccc2O1 (configuration not stated),103.5,x,x,x,i,0.96,x
CSc1ccccc1NC(=O)CN(Cc1ccc(Cl)cc1)S(C)(=O)=O,104.4,-1.5,35.3,119.7,i,1.1,0.0
COCCn1c(=NC(=O)c2ccccc2[N+](=O)[O-])sc2cc(S(C)(=O)=O)ccc21,101.9,-8.8,x,x,i,1.02,-0.2
Cn1c(=O)c([N+](=O)[O-])c(-n2ccnc2)c2ccccc21,100.3,-0.7,x,x,i,0.85,x
COC(=O)Nc1nc(C)c(C(=O)N(C)C)s1,103.7,4.6,9.1,235.6,i,0.9,-1.6
Cc1cc(Br)ccc1NC(=O)CNC(=O)CN(C)Cc1nc2ccccc2c(=O)[nH]1,103.0,-4.8,54.5,171.1,i,0.9,0.1
CCN(CC)S(=O)(=O)c1ccc(S(=O)(=O)N(Cc2ccccn2)Cc2ccco2)cc1,107.8,-10.3,19.4,40.5,i,0.68,3.2
Cc1ccc(C#N)c(SCc2nnc(-c3ccc(Cl)cc3)o2)n1,108.2,-4.0,31.0,114.5,i,0.9,3.7
O=S1(=O)N=C(N(Cc2cccs2)c2ccc(O)cc2)c2ccccc21,97.4,1.5,x,x,i,1.3,x
COc1ccc(OCCC(=O)OCC(=O)Nc2ccc(S(=O)(=O)N3CCOCC3)cc2)cc1,110.7,-5.8,-9.1,148.9,i,0.94,x
CC(=O)c1cccc(NC(=O)N2CCCC2C(=O)NCc2ccc3c(c2)OCO3)c1 (configuration not stated),104.3,0.9,-8.3,101.3,i,1.02,x
CC(c1ccco1)N(C(=O)c1ccc(Cl)s1)c1ccccn1 (configuration not stated),x,-1.1,x,x,i,0.82,-2.1
O=C(NC1CCCCC1)NC1CCN(S(=O)(=O)Cc2ccccc2)CC1,97.5,-13.1,25.0,149.7,i,0.94,-3.5
CS/C(=N\S(=O)(=O)c1cccs1)Nc1ccc(N2CCOCC2)cc1,101.8,-2.5,-35.7,124.4,i,1.09,-2.2
CCOc1ccc(Cl)cc1CNCCNCCO,101.5,-8.1,x,x,i,0.81,-0.4
# Following part:
SMILES,RGS16-Gao HTS,PKD1 kinase inh,INS promoter inh,INS promoter inh cell count,HSV augment,HSV augment primary fold,GALR2 ag
COc1ccccc1NC(=O)CCC(=O)OCc1cccc([N+](=O)[O-])c1,97.8,-4.1,x,x,i,0.91,x
O=C(NNS(=O)(=O)c1ccccc1C(F)(F)F)c1cc2ncc(C(F)(F)F)cc2s1,103.7,x,x,x,i,1.08,x
O=C1NNC(c2ccccc2)=N/C1=C\c1ccccc1,102.4,x,x,x,i,0.98,x
Cc1ccc(-n2nnnc2SCC#N)cc1,97.6,-6.0,x,x,i,1,x
Clc1cccc(CN2COc3c(cc(Cl)c4cccnc34)C2)c1,98.1,4.6,i,32.6,i,0.76,1.8
O=C(Nc1nnc(-c2ccc(Cl)cc2)o1)C1=COCCO1,113.0,-2.9,19.2,92.4,i,0.95,-0.6
O=C(NNc1nc2ccc(F)cc2s1)c1cccc(F)c1,103.8,1.2,5.6,153.9,i,0.94,x
CCC(=O)NCCNc1nc2cc(C)cc(C)c2cc1C#N,106.6,-3.2,-21.7,221.4,i,0.88,x
Oc1ccc(Cl)cc1-c1cc(C(F)(F)C(F)F)nc(-c2ccccc2)n1,94.5,-6.2,-1.4,103.8,i,0.86,-1.1
O=C(OC(C(=O)NC1CCCC1)c1cccnc1)C1=Cc2ccccc2OC1 (configuration not stated),102.2,-11.9,-62.2,197.9,i,0.96,-1.6
CCOP(=O)(OCC)c1nc(-c2ccc(C)cc2)oc1NCc1ccccc1,106.1,0.2,-10.3,108.8,i,0.9,-0.3
O=C(N/N=C/c1cc(Br)cc(Br)c1O)c1cccc(N2CCCC2=O)c1,93.3,-5.4,x,x,i,0.94,x
O=C(Cn1ccc([N+](=O)[O-])n1)NCc1cccnc1,100.7,0.9,-11.8,117.9,i,0.88,x
O=C(NCc1ccco1)c1cc(=O)c2ccccc2o1,108.6,-3.1,0.0,72.7,i,1.01,x
Cc1cc(C)n2cc(CSCc3ccccc3)nc2n1,112.9,18.2,x,x,i,1.03,-0.4
O=C(Nc1ccc(F)cc1)N(CCCN1CCOCC1)Cc1cc2cc3c(cc2[nH]c1=O)OCCO3,105.3,11.5,-25.0,112.0,i,1.02,1.5
CCOC(=O)N1CCN(C(=O)CS(=O)(=O)Cc2nc(-c3ccccc3C)oc2C)CC1,107.8,-12.6,x,x,i,1,-2.2
O=C(NC1CCCCC1)C(c1ccc(Cl)cc1)N(C(=O)c1cnccn1)c1ccc2c(c1)OCO2 (configuration not stated),102.0,-2.0,-35.1,82.0,i,0.96,-0.5
CCC(C)(C)N1CC(=O)N(Cc2ccccc2)C(c2ccc(OC)cc2)C1=O (configuration not stated),104.3,7.9,-72.7,120.2,i,0.92,-0.2
COc1ccc(-c2noc(CCCc3ccccc3)n2)cc1OC,101.2,-7.7,x,x,i,0.99,-2.0
Cc1nc2ccccc2c2oc(C(=O)NCCN3CCN(C)CC3)cc12,103.5,8.2,x,x,i,1.06,-4.5
O=C(COC(=O)C1CCN(C(=O)c2ccc(Cl)cc2)CC1)c1ccco1,93.3,-10.0,x,x,i,0.96,-0.2
CC1CCN(C(=O)c2ccc(CNc3c(N4CCCC4)c(=O)c3=O)cc2)CC1,92.1,x,x,x,i,1.08,x
Cc1ccsc1C(=O)C1CCCN(Cc2cn(C)nc2-c2ccccc2)C1 (configuration not stated),101.6,3.1,-52.2,152.8,i,0.96,x
CCC(C)(C(=O)NC1CCCCC1)N(Cc1cccs1)C(=O)c1ccc(=O)[nH]c1 (configuration not stated),108.1,-4.9,x,x,i,0.95,-2.0
# Following part
SMILES,RGS16-Gao HTS,PKD1 kinase inh,INS promoter inh,INS promoter inh cell count,HSV augment,HSV augment primary fold,GALR2 ag
COc1ccc(NC(=O)c2cc(S(=O)(=O)N3CCOCC3)cs2)cc1,119.3,-0.5,-23.8,166.5,i,1,x
Cc1c(CCO)c(=O)[nH]n1C(=O)c1ccc(F)cc1,89.4,-7.0,-66.7,95.2,i,0.94,-1.3
CCOc1ccc(C(=O)c2nc3c(n2O)CCCC3)cc1,99.4,-6.4,x,x,i,0.91,-3.9
CCOc1ccc(CCNC(=O)C2CC(=O)N(C3CCCC3)C2)cc1OCC (configuration not stated),98.2,-8.8,43.8,86.2,i,0.85,-1.3
N#CC(=C1N=c2ccccc2=N1)c1c(O)[nH]c2ccccc12,91.0,2.6,12.7,135.6,i,1.06,-1.2
CN1CCN(/C=N/c2sc3c(c2C#N)CCCCC3)CC1,101.2,0.1,x,x,i,1.01,0.3
Cc1ccnc(NC(=O)CCC(=O)N(CC(=O)NCc2ccccc2)Cc2ccco2)c1,96.1,1.8,x,x,i,0.95,x
COCc1ccc(CN2CCc3c([nH]c4ccccc34)C2CC(C)C)o1 (configuration not stated),84.4,-3.1,x,x,i,1.25,x
COc1ccc(-n2nnnc2SCC(=O)c2cccc(OC)c2)cc1,98.9,-2.9,x,x,i,0.87,-2.6
O=C(COc1cccc2ccccc12)NNC(=O)[C@@H]1CCCC[C@@H]1C(=O)O,76.5,2.4,-30.0,101.0,i,0.91,-1.9
N#C/C(=C\c1ccco1)C(=O)Nn1cnnc1,101.9,0.0,x,x,i,0.87,x
Cc1c(Br)c([N+](=O)[O-])nn1CC(=O)Nc1ccc(C(N)=O)cc1,96.0,0.0,x,x,i,1.09,x
O=C(COC(=O)c1ccccc1Br)Nc1ccc(F)cc1,96.5,0.1,x,x,i,1.06,x
CN(C)C(=O)c1nc2ccc(Cl)cn2c1CN1CCCC(OCc2cccnc2)C1 (configuration not stated),105.9,4.6,-35.0,58.7,i,0.95,x
CCOC(=O)Cn1c(S(=O)(=O)Cc2ccccc2)nc2ccccc21,100.8,-4.9,x,x,i,0.84,-0.8
C=CCn1c(=O)c(C#N)cc2c(=O)n3ccccc3nc21,76.1,-11.1,0.0,100.0,i,0.95,21.0*
CCc1cccc(OCC(=O)Nc2c[nH]c(=O)[nH]c2=O)c1,104.1,1.6,6.7,53.4,i,0.9,x
O=C(COC(=O)c1ccc2ccccc2c1)Nc1ncc(C(F)(F)F)cc1Cl,99.8,-2.6,-26.9,111.5,i,0.99,-1.4
Cc1ccc(-c2cc(C(=O)N3CCN(c4ncccn4)CC3)c3cc(Br)ccc3n2)o1,74.8,-1.3,x,x,i,1.05,x

# In the list so far, eight have a thiophene ring, fused or not.
SMILES,RGS16-Gao HTS,PKD1 kinase inh,INS promoter inh,INS promoter inh cell count,HSV augment,HSV augment primary fold,GALR2 ag
O=S1(=O)N=C(N(Cc2cccs2)c2ccc(O)cc2)c2ccccc21,97.4,1.5,x,x,i,1.3,x
CC(c1ccco1)N(C(=O)c1ccc(Cl)s1)c1ccccn1 (configuration not stated),x,-1.1,x,x,i,0.82,-2.1
CS/C(=N\S(=O)(=O)c1cccs1)Nc1ccc(N2CCOCC2)cc1,101.8,-2.5,-35.7,124.4,i,1.09,-2.2
O=C(NNS(=O)(=O)c1ccccc1C(F)(F)F)c1cc2ncc(C(F)(F)F)cc2s1,103.7,x,x,x,i,1.08,x
Cc1ccsc1C(=O)C1CCCN(Cc2cn(C)nc2-c2ccccc2)C1 (configuration not stated),101.6,3.1,-52.2,152.8,i,0.96,x
CCC(C)(C(=O)NC1CCCCC1)N(Cc1cccs1)C(=O)c1ccc(=O)[nH]c1 (configuration not stated),108.1,-4.9,x,x,i,0.95,-2.0
COc1ccc(NC(=O)c2cc(S(=O)(=O)N3CCOCC3)cs2)cc1,119.3,-0.5,-23.8,166.5,i,1,x
CN1CCN(/C=N/c2sc3c(c2C#N)CCCCC3)CC1,101.2,0.1,x,x,i,1.01,0.3

# High-throughput results as filed in PubChem BioAssay.
